# Yeast UUG start = alters start codon recognition fidelity in yeast. S. cerevisiae UUG-firefly luciferase reporter, luminescence/redox ratio. activity score, % at 18.7 µM. 350,000 compounds, 0.13% hits. AID 602363;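 active = replicate mean at a twofold rise or more, about +100% in these data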;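 note: firefly luciferase made from a UUG start codon reports start codon fidelity; reporter light over untreated wells divided by growth signal over untreated wells; some hits fall short of that in this replicate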
# HIV Env fusion = blocks HIV Env-driven cell-cell fusion; HeLa-JRFL Env/CEM21 cell fusion, luciferase; inhibition, % at 12.3 µM; 360,000 compounds, 1.1% hits;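 active = mean replicate inhibition score of at least 50 and every replicate individually at or above 50; inconclusive = only one of the two criteria met; inactive = mean below 50 and not all replicates reaching 50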;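 note: 0% = plate neutral controls and 100% = maraviroc near 300 nM; one replicate is shown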
# * = called active by the depositor; u = inconclusive; [ ] = dose if it differs, or a comment.
SMILES,Yeast UUG start,HIV Env fusion
C[C@@H]1CN([C@H](C)CO)C(=O)c2cc(N(C)C)ccc2O[C@@H]1CN(C)C,-9,0[16.7 µM]
COc1ccc(S(=O)(=O)Nc2ccc3c(c2)C(=O)N([C@H](C)CO)C[C@@H](C)[C@@H](CN(C)CC2CCCCC2)OCCCC[C@@H](C)O3)cc1,45,-26[16.7 µM]
C[C@H]1CN([C@@H](C)CO)C(=O)Cc2cc(NC(=O)Nc3ccccc3)ccc2O[C@@H]1CN(C)C(=O)Nc1ccccc1,3,7[16.7 µM]
C[C@H](CO)N1C[C@H](C)[C@@H](CN(C)Cc2ccc(C(F)(F)F)cc2)Oc2c(NS(=O)(=O)c3ccc(Cl)cc3)cccc2C1=O,5,u
C[C@H]1CCCCO[C@H](CN(C)C(=O)Nc2ccccc2)[C@@H](C)CN([C@@H](C)CO)C(=O)c2cc(NS(=O)(=O)c3ccccc3)ccc2O1,12,-56[16.7 µM]
CCNC(=O)C[C@H]1CC[C@@H]2[C@H](COc3ccc(NC(=O)c4cccc(C(F)(F)F)c4)cc3C(=O)N2C)O1,-1,1[16.7 µM]
Cc1ccc(S(=O)(=O)Nc2ccc3c(c2)CC(=O)N([C@@H](C)CO)C[C@H](C)[C@@H](CN(C)C(=O)Nc2ccccc2)O3)cc1,0,-10[16.7 µM]
COc1ccc(CN(C)C[C@H]2Oc3ccc(NC(=O)C4CC4)cc3C(=O)N([C@@H](C)CO)C[C@H]2C)cc1,6,1[16.7 µM]
O=C(Nc1ccccc1F)N[C@H]1CC[C@H](CCNC(=O)C2CCOCC2)O[C@H]1CO,11,10[16.7 µM]
C/C=C/c1ccc2c(c1)O[C@@H](CN(C)C(=O)c1cccc(F)c1)[C@H](C)CN([C@@H](C)CO)S2(=O)=O,5,14[16.7 µM]
C[C@@H]1CCCCO[C@H](CN(C)C(=O)Cc2ccccc2)[C@H](C)CN([C@@H](C)CO)C(=O)c2cc(NC(=O)Nc3ccc(C(F)(F)F)cc3)ccc2O1,-13,22[16.7 µM]
C[C@H]1CN([C@@H](C)CO)C(=O)c2cccc(NC(=O)c3ccc(-c4nccs4)cc3)c2O[C@H]1CN(C)CC1CC1,29,6[16.7 µM]
CSc1nc(SCc2ccccc2)[nH]c(=O)n1,0,9
C[C@@H]1CCCCO[C@H](CN(C)S(=O)(=O)c2cccs2)[C@H](C)CN([C@@H](C)CO)C(=O)c2cc(NC(=O)Nc3ccc(C(F)(F)F)cc3)ccc2O1,-12,0[16.7 µM]
Cc1noc(C)c1NC(=O)Nc1ccc2c(c1)C(=O)N([C@@H](C)CO)C[C@H](C)[C@H](CN(C)S(=O)(=O)c1cccs1)OCCCC[C@@H](C)O2,17,3[16.7 µM]
C[C@@H]1CN([C@H](C)CO)C(=O)c2cc(-c3ccccc3)cnc2O[C@@H]1CN(C)Cc1cccnc1,-7,-10[16.7 µM]
O=C(NCC[C@H]1CC[C@H](NS(=O)(=O)Cc2ccccc2)[C@H](CO)O1)C1CCCCC1,36,-5[16.7 µM]
CCc1csc(N2[C@H](C#N)[C@H](c3ccc(-c4cccc(F)c4)cc3)[C@H]2CO)n1,-18,18[16.7 µM]
C[C@H]1CCCCO[C@H](CN(C)Cc2ccccc2)[C@@H](C)CN([C@@H](C)CO)C(=O)c2cc(NC(=O)NC3CCCCC3)ccc2O1,27,20[16.7 µM]
O=C(C[C@H]1C[C@H]2c3cc(NC(=O)NC4CCCC4)ccc3O[C@H]2[C@H](CO)O1)NCc1ccccc1,14,-5[16.7 µM]
CCC(=O)N(C)C[C@H]1Oc2ncc(-c3ccc(C)cc3)cc2C(=O)N([C@H](C)CO)C[C@H]1C,-3,18[16.7 µM]
C[C@H](CO)N1C[C@H](C)[C@@H](CN(C)C(=O)Nc2ccccc2)Oc2ccc(NC(=O)NC3CCCCC3)cc2CC1=O,-2,-6[16.7 µM]
C[C@@H]1CCCCO[C@H](CN(C)S(=O)(=O)c2ccc(Cl)cc2)[C@@H](C)CN([C@@H](C)CO)C(=O)c2cc(NC(=O)CCC(F)(F)F)ccc2O1,6,37[16.7 µM]
C[C@@H](O)C#Cc1cnc2c(c1)C(=O)N([C@@H](C)CO)C[C@H](C)[C@H](CN(C)C(=O)CN1CCOCC1)O2,1,21[16.7 µM]
C[C@@H]1CCCCO[C@@H](CN(C)C(=O)NC2CCCCC2)[C@H](C)CN([C@@H](C)CO)C(=O)c2cc(NS(C)(=O)=O)ccc2O1,-6,-4[16.7 µM]

# Profiles from above. Values in the order: Yeast UUG start, HIV Env fusion
# C[C@H]1CCCCO[C@H](CN(C)Cc2ccccc2)[C@@H](C)CN([C@@H](C)CO)C(=O)c2cc(NC(=O)NC3CCCCC3)ccc2O1 across the screens: 27, 20[16.7 µM]
# CSc1nc(SCc2ccccc2)[nH]c(=O)n1 across the screens: 0, 9
# O=C(Nc1ccccc1F)N[C@H]1CC[C@H](CCNC(=O)C2CCOCC2)O[C@H]1CO across the screens: 11, 10[16.7 µM]
# C[C@H]1CN([C@@H](C)CO)C(=O)Cc2cc(NC(=O)Nc3ccccc3)ccc2O[C@@H]1CN(C)C(=O)Nc1ccccc1 across the screens: 3, 7[16.7 µM]
# C[C@@H]1CCCCO[C@H](CN(C)C(=O)Cc2ccccc2)[C@H](C)CN([C@@H](C)CO)C(=O)c2cc(NC(=O)Nc3ccc(C(F)(F)F)cc3)ccc2O1 across the screens: -13, 22[16.7 µM]

# Next section.
SMILES,Yeast UUG start,HIV Env fusion
CN(C)C(=O)C[C@@H]1CC[C@@H]2[C@H](COC[C@H](O)CN2Cc2nccs2)O1,-6,8[16.7 µM]
CNC[C@H]1Oc2c(N)cccc2C(=O)N([C@H](C)CO)C[C@@H]1C,-6,5[16.7 µM]
C[C@@H]1CN([C@@H](C)CO)C(=O)c2cc(NC(=O)Nc3ccc(C(F)(F)F)cc3)ccc2O[C@H]1CN(C)C(=O)Nc1ccc(F)cc1,3,-12[16.7 µM]
C[C@H](CO)N1C[C@H](C)[C@H](CN(C)C(=O)Nc2ccc3c(c2)OCO3)Oc2ccc(NS(C)(=O)=O)cc2CC1=O,-32,2[16.7 µM]
Cc1ccc(S(=O)(=O)Nc2ccc3c(c2)CC(=O)N([C@H](C)CO)C[C@H](C)[C@@H](CN(C)S(=O)(=O)c2cccs2)O3)cc1,23,-23[16.7 µM]
Cc1ccc(NC(=O)Nc2ccc3c(c2)C(=O)N(C)[C@@H]2CC[C@H](CC(=O)O)O[C@H]2CO3)cc1,-14,-16[16.7 µM]
C[C@H]1CN([C@@H](C)CO)S(=O)(=O)c2ccc(C#Cc3ccccn3)cc2O[C@H]1CN(C)CC1CC1,-8,-14[16.7 µM]
Cc1noc(C)c1S(=O)(=O)Nc1ccc2c(c1)C(=O)N([C@H](C)CO)C[C@H](C)[C@@H](CN(C)C(=O)CCCN(C)C)OCCCC[C@H](C)O2,0,0[16.7 µM]
COc1cccc(NC(=O)N(C)C[C@@H]2Oc3cc(-c4ccccc4OC)ccc3S(=O)(=O)N([C@@H](C)CO)C[C@H]2C)c1,18,-20[16.7 µM]
C[C@@H]1CN([C@@H](C)CO)C(=O)c2cc(-c3ccc(C(=O)N(C)C)cc3)cnc2O[C@@H]1CN(C)C(=O)C1CC1,-3,-45[16.7 µM]
C[C@@H]1CN([C@@H](C)CO)C(=O)Cc2cc(NC(=O)CCN3CCOCC3)ccc2O[C@@H]1CN(C)CC1CC1,-4,25[16.7 µM]
COC(=O)C[C@@H]1CC[C@H]2[C@@H](COc3ccc(NS(C)(=O)=O)cc3C(=O)N2C)O1,-27,10[16.7 µM]
O=C(C[C@H]1C[C@@H]2c3cc(NS(=O)(=O)c4ccccc4)ccc3O[C@@H]2[C@@H](CO)O1)NC1CCCCC1,9,-5[16.7 µM]
CO[C@H]1CN(C)C(=O)c2ccc(NC(=O)C3CC3)cc2OC[C@H](C)N(C(=O)c2cnccn2)C[C@H]1C,4,-15[16.7 µM]
COCC(=O)Nc1ccc2c(c1)C(=O)N(C)C[C@@H](OC)[C@@H](C)CN(Cc1ccncc1)[C@H](C)CO2,-4,-12[16.7 µM]
C[C@@H]1CN([C@@H](C)CO)S(=O)(=O)c2ccc(C#C[C@@H](C)O)cc2O[C@H]1CN(C)C(=O)CC1CC1,2,-25[16.7 µM]
C[C@H](CO)N1C[C@H](C)[C@@H](CN(C)C)Oc2ncc(C#CC3CCCCC3)cc2C1=O,0,22[16.7 µM]
Cc1noc(C)c1NC(=O)Nc1ccc2c(c1)C(=O)N([C@@H](C)CO)C[C@@H](C)[C@@H](CN(C)C(=O)Cc1ccccc1)OCCCC[C@@H](C)O2,7,-9[16.7 µM]
C[C@H](CO)N1C[C@H](C)[C@H](CN(C)Cc2ccc(Cl)c(Cl)c2)OCCCC[C@H](C)Oc2ccc(NC(=O)Nc3ccc(C(F)(F)F)cc3)cc2C1=O,-3,u
C[C@H](CO)N1C[C@H](C)[C@@H](CN(C)Cc2ccc(-c3ccccc3)cc2)Oc2ccc(NS(=O)(=O)c3cccs3)cc2CC1=O,-2,-25[16.7 µM]
Cc1noc(C)c1S(=O)(=O)N(C)C[C@@H]1OCCCC[C@H](C)Oc2ccc(NC(=O)Nc3cccc4ccccc34)cc2C(=O)N([C@H](C)CO)C[C@@H]1C,-12,40[16.7 µM]
CC(C)c1cn(CC[C@H]2CC[C@@H](NC(=O)c3cccc(F)c3)[C@@H](CO)O2)nn1,-3,10[16.7 µM]
Cc1noc(C)c1S(=O)(=O)N(C)C[C@H]1Oc2ccc(N(C)C)cc2CC(=O)N([C@@H](C)CO)C[C@H]1C,5,-5[16.7 µM]
C[C@@H]1CN([C@H](C)CO)C(=O)c2cc(-c3ccc(C(=O)N(C)C)cc3)cnc2O[C@@H]1CN(C)Cc1ccc(C(=O)O)cc1,-2,-2[16.7 µM]
CC(C)C(=O)Nc1ccc2c(c1)C(=O)N(C)[C@H]1CC[C@@H](CC(=O)Nc3ccccc3)O[C@@H]1CO2,7,7[16.7 µM]
# (further entries)
SMILES,Yeast UUG start,HIV Env fusion
C[C@H](CO)N1C[C@H](C)[C@H](CN(C)S(=O)(=O)c2cn(C)cn2)Oc2cc(C#Cc3ccccc3)ccc2S1(=O)=O,4,28[16.7 µM]
Cc1ccccc1S(=O)(=O)NCC[C@H]1CC[C@@H](NC(=O)Nc2cccc(F)c2)[C@@H](CO)O1,7,2[16.7 µM]
O=C(N[C@@H]1CC[C@H](CCNS(=O)(=O)c2ccc(F)cc2)O[C@@H]1CO)C1CC1,0,59*[16.7 µM]
Cc1noc(C)c1S(=O)(=O)N(C)C[C@H]1Oc2ccc(NS(C)(=O)=O)cc2CC(=O)N([C@H](C)CO)C[C@@H]1C,5,-3[16.7 µM]
C[C@@H]1CCCCO[C@@H](CN(C)C(=O)Nc2ccc3c(c2)OCO3)[C@@H](C)CN([C@@H](C)CO)C(=O)c2cc(NC(=O)Cc3ccccc3)ccc2O1,1,-16[16.7 µM]
CN(C)CC(=O)Nc1ccc2c(c1)[C@@H]1C[C@H](CC(=O)NCc3ccccn3)O[C@@H](CO)[C@@H]1O2,-17,38[16.7 µM]
C[C@@H]1CN([C@H](C)CO)C(=O)Cc2cc(NC(=O)c3ccncc3)ccc2O[C@@H]1CN(C)CC1CC1,-11,-1[16.7 µM]
CC(=O)N(C)C[C@H]1Oc2ncc(-c3cccnc3)cc2C(=O)N([C@@H](C)CO)C[C@@H]1C,-8,4[16.7 µM]
C[C@H]1CN([C@@H](C)CO)C(=O)c2cc(Br)cnc2O[C@@H]1CN(C)C(=O)Nc1ccccc1,-6,-3[16.7 µM]
CC(=O)N(C)C[C@H]1Oc2ncc(C3=CCCC3)cc2C(=O)N([C@@H](C)CO)C[C@H]1C,-1,-24[16.7 µM]
C[C@@H]1CN([C@H](C)CO)C(=O)c2cc(NC(=O)C3CCCCC3)ccc2O[C@@H]1CN(C)S(=O)(=O)c1cn(C)cn1,5,-26[16.7 µM]
C[C@@H]1CN([C@@H](C)CO)S(=O)(=O)c2ccc(-c3cccc(F)c3)cc2O[C@@H]1CN(C)S(=O)(=O)c1ccc(F)cc1,-18,59*[16.7 µM]
C[C@@H]1CN([C@H](C)CO)C(=O)c2cc(NC(=O)CCC(F)(F)F)ccc2O[C@@H](C)CCCCO[C@H]1CN(C)C(=O)Nc1ccccc1,35,-1[16.7 µM]
COc1ccc(CN(C)C[C@H]2OCCCC[C@@H](C)Oc3ccc(NS(=O)(=O)c4cccs4)cc3C(=O)N([C@@H](C)CO)C[C@H]2C)cc1,25,21[16.7 µM]
CC(C)NC(=O)N(C)C[C@H]1Oc2ccc(NS(=O)(=O)c3cn(C)cn3)cc2CC(=O)N([C@@H](C)CO)C[C@H]1C,-7,-8[16.7 µM]
COc1ccc(-c2cnc3c(c2)C(=O)N([C@@H](C)CO)C[C@H](C)[C@H](CN(C)C)O3)cc1,-4,-11[16.7 µM]
Cc1noc(C)c1NC(=O)N(C)C[C@@H]1OCCCC[C@@H](C)Oc2ccc(NS(=O)(=O)c3ccc(F)cc3)cc2C(=O)N([C@H](C)CO)C[C@@H]1C,-18,25[16.7 µM]
C[C@@H]1CN([C@@H](C)CO)C(=O)c2cc(C3=CCCCC3)cnc2O[C@H]1CN(C)C(=O)c1cccc(F)c1,15,7[16.7 µM]
CCC(=O)N1C[C@@H](C)[C@H](OC)CN(C)C(=O)c2ccc(NC(=O)c3ccc(OC)cc3)cc2OC[C@H]1C,7,-25[16.7 µM]
C/C=C/c1ccc2c(c1)O[C@@H](CN(C)Cc1cccnc1)[C@@H](C)CN([C@@H](C)CO)S2(=O)=O,27,-16[16.7 µM]

# In a second layout: entries from further up.
SMILES	Yeast UUG start	HIV Env fusion
O=C(N[C@@H]1CC[C@H](CCNS(=O)(=O)c2ccc(F)cc2)O[C@@H]1CO)C1CC1	0	59*[16.7 µM]
CC(=O)N(C)C[C@H]1Oc2ncc(C3=CCCC3)cc2C(=O)N([C@@H](C)CO)C[C@H]1C	-1	-24[16.7 µM]

# This is a subset; the hit share may differ from the screen's.
